NPYLR7 ag: agonists of mosquito NPYLR7 receptor, primary screen, cell-based, Aedes aegypti, calcium fluorescence, mosquito biting behavior; hit rate 0.15% among 270,000; activation, % at 10 µM; Aedes aegypti neuropeptide Y-like receptor 7 (NPYLR7); HEK293T NPYLR7/Galpha15, GCaMP6s calcium fluorescence; in the data active means activation above about 40%;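 further: 0% = vehicle and 100% = reference agonist at the receptor; some compounds past the cut are filed as inactive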
NPYLR7 ag max-min: further read-out of NPYLR7 ag, marked with its call; activation, %; measured here: Max-Min RFU normalised activation; some inactives read as strong as hits;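 span of the calcium signal over five minutes; 0% = vehicle and 100% = native peptide agonist; compound fluorescence can raise it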
Starred values were filed as active, the others as inactive; & = joins results of further samples. An excerpt; count on the stated rates, not on these rows.

SMILES	NPYLR7 ag	NPYLR7 ag max-min
O=S(=O)(CCn1nnc2ccccc21)NCC1CCCc2ccccc21 (centres undefined)	2	17
CSc1cccc(NC(=O)Cn2c(C)cc(C)c(C#N)c2=O)c1	-6	-12
O=C(CCCCCN1C(=O)C2C3C=CC(C3)C2C1=O)Nc1nncs1 (centres undefined)	0	-3
c1ccc2oc(NC3=NCN(Cc4ccc5c(c4)OCO5)CN3)nc2c1	5	3
Cc1ncc(CN2CCC(n3nccc3NC(=O)Cc3ccccc3)CC2)s1	-1	-2
CCCn1c(=O)[nH]c2nc(-c3ccc(S(=O)(=O)O)cc3)[nH]c2c1=O	-13	-18
CN(C)c1nc(N)nc(CSc2nc3c(c(=O)n(C)c(=O)n3C)n2C)n1	4	1
O=C(Nc1ccc(F)c(F)c1)N1CCN(c2nc(Cc3ccc(Cl)cc3)ns2)CC1	13	18
O=C1NC(c2ccccc2)=C(c2nc3ccccc3[nH]2)C(c2ccccc2I)N1 (centres undefined)	4	9
O=C1CC(c2cccc(Cl)c2)Cc2c1cnc1nc(N3CCOCC3)[nH]c(=O)c21 (centres undefined)	8	27
O=C1NC(=S)N/C1=C\c1ccc(Oc2ccc([N+](=O)[O-])cc2[N+](=O)[O-])cc1	0	3
O=C(Cc1ccccc1)N(Cc1csc(COc2cc(Cl)ccc2Cl)n1)C1CC1	2	9
CCC(C)Cc1c(C)sc2nc(CSc3nnc(C)n3C3CC3)[nH]c(=O)c12 (centres undefined)	-1	8
CC1CC(=O)c2cn3c(nc2C1)nc1ccccc13 (centres undefined)	2	2
Cc1cc(C)nc(SCc2cc(=O)c(OC(=O)c3ccc(S(=O)(=O)N(C)C)cc3)co2)n1	-26	-17
c1ccc(COC2CCN(Cc3cnc(-c4ccco4)nc3)CC2)cc1	7	4
COc1ccc2nc(-n3cncn3)cc(C)c2c1	4	-1
Cn1cc(C(=O)N(CCC2=CCCCC2)CC2CC2)ccc1=O	4	1
C=CCN(Cc1csc(COc2ccccc2C(C)C)n1)C(=O)c1cccs1	17	12
O=C1NC(=O)C(CC(=O)N2CCN(c3nccc(-c4cccs4)n3)CC2)N1 (centres undefined)	-9	-6

Overlap with the part before: 2 entries, then new ones.
SMILES	NPYLR7 ag	NPYLR7 ag max-min
C=CCN(Cc1csc(COc2ccccc2C(C)C)n1)C(=O)c1cccs1	17	12
O=C1NC(=O)C(CC(=O)N2CCN(c3nccc(-c4cccs4)n3)CC2)N1 (centres undefined)	-9	-6
Cc1ccc2oc(-c3cccc(NC(=O)c4ccc(Cl)c([N+](=O)[O-])c4)c3C)nc2c1	-8	-7
O=C(CS(=O)(=O)c1ccccc1)N1CCN2C(=O)N(C3CCCCC3)C(=O)[C@H]2C1	-10	-16
O=C(O)/C=C1/c2ccccc2CSc2ccc(Cl)cc21	2	1
CCNC(=O)N1CCSC12C(=O)N(Cc1ccccc1Cl)c1ccccc12 (centres undefined)	0	4
S=c1n(CN2CCCC2)nc2sc3ccccc3n12	2	21
CN(c1ncccc1CNC(=O)CCN1CCCO1)C1CCCCC1	11	8
CC/C(=N/NC(=O)Cc1ccc(Br)cc1)c1ccc(Br)s1	1	5
CCCC1(CCC)NC(=O)N(CC(=O)Nc2ccc(C)cc2C)C1=O	2	1
COc1cccc(C2NC(=O)N(C)C3=C2C(=O)N(Cc2ccncc2)C3)c1 (centres undefined)	1	6
COc1cccc(-c2cc(CNS(=O)(=O)NCc3ccccc3)on2)c1	-2	10
COCCNC(=O)C1CCCN(C2CCN(C(=O)c3cccnn3)CC2)C1 (centres undefined)	-9	-13
COc1ccccc1CNS(=O)(=O)c1ncn(C)c1Cl	-2	-5
Cc1ccc(S(=O)(=O)Oc2ccc(C)cc2-c2nc3ccc(C)cc3o2)cc1	-3	11
O=C(NCc1ccco1)c1coc(CN(Cc2cccc(Oc3ccccc3)c2)Cc2ccc3c(c2)OCO3)n1	19	23
COCC(=O)N1CCCC(N2CCc3ccccc3C2)C1 (centres undefined)	3	8
CC1Cc2c(NC(=O)COc3ccccc3F)nn(C)c2NC1=O (centres undefined)	-16	-24
CCN(CC)C(=O)CSc1nc(-c2cccc(OC)c2)nc2c1Cc1c(CO)cnc(C)c1O2	-2	4
COc1ccc(/C=C2/N=C(c3ccc(C)c(C)c3)OC2=O)cc1OC	1	-3
Cc1ccccc1C(=O)NC(C(=O)N1CCCC1)C1CCN(C(=O)c2cccc(Br)c2)CC1 (centres undefined)	20	21
Nc1cc(-c2cccc(C(F)(F)F)c2)nn1-c1ccc(C(=O)N2CCC(n3c(=O)[nH]c4ccccc43)CC2)cc1	-9	-15
C=C(C)Cn1c(SCCC)nc2c1c(=O)n(C)c(=O)n2C	8	0
COc1cccc(CSc2nnc(C(C)NC(=O)C3CCCCC3)n2-c2cc(Cl)ccc2C)c1 (centres undefined)	-12	-8
C/C(=C\c1ccco1)C1CC(=O)Nc2cc(O)c(C)cc21 (centres undefined)	2	1
COc1cccc(C(=O)Nc2cc(-c3nc4ccccc4o3)ccc2OC)c1	-11	-12
Cn1c(=O)c2sccc2n2c(CCCC(=O)N3CCN(C(=O)c4ccco4)CC3)nnc12	4	2
CC(C)Cc1nc(N2CCN(C(=O)/C=C/c3ccccc3)CC2)c2c(-c3ccc4ccccc4c3)noc2n1	-11	2
O=S(=O)(c1ccc2oc(=S)[nH]c2c1)N1CCOCC1	10	9
CCc1nnc(NC(=O)c2ccc(C(C)C)cc2)s1	-6	-11
O=C(CCc1ccccc1)N1CC(=O)N(Cc2cccc(F)c2)CC(O)C1 (centres undefined)	0	9
CCOC(=O)c1cc(-c2ccc(Cl)cc2)n(-c2ccc(C(=O)NCCc3cccs3)cc2)n1	1	-5
CC(=O)Nc1ccc2nc(CN(Cc3ccccc3)Cc3nccs3)ccc2c1	0	21
O=[N+]([O-])c1cc(Br)cnc1NCc1ccncc1	6	4
O=C(Nc1ccc2[nH]ncc2c1)c1ccc(Br)cc1Cl	0	-4
CC(=O)N1CCc2c(nc(C)nc2NCc2nc(C)c3c(n2)CCCC3)C1	-6	-9
Cc1ccc(-c2c(C)nn3c(NC(C)C)cc(C)nc23)cc1	-10	-12
C[C@@H]1CN(CC(=O)N2CCC3(CCN(C)C3)CC2)C[C@H](C)O1	7	5
CCN1CCN(c2nc(Nc3ccc(C)cc3)c3cnn(-c4ccccc4)c3n2)CC1	1	-1
Cc1cn(-c2ncccc2F)nc1N	6	4
COc1cccc2cc(-c3csc(Nc4ccccc4F)n3)c(=O)oc12	5	-6
Cc1nc2ccccn2c1C(=O)NNS(=O)(=O)c1cc(F)cc(F)c1	11	7

Given with values under each structure: entries from further up
Fields: NPYLR7 ag | NPYLR7 ag max-min
CCOC(=O)c1cc(-c2ccc(Cl)cc2)n(-c2ccc(C(=O)NCCc3cccs3)cc2)n1
    1 | -5
CC(=O)Nc1ccc2nc(CN(Cc3ccccc3)Cc3nccs3)ccc2c1
    0 | 21
O=[N+]([O-])c1cc(Br)cnc1NCc1ccncc1
    6 | 4
O=C(Nc1ccc2[nH]ncc2c1)c1ccc(Br)cc1Cl
    0 | -4
CC(=O)N1CCc2c(nc(C)nc2NCc2nc(C)c3c(n2)CCCC3)C1
    -6 | -9

Carrying on.
SMILES	NPYLR7 ag	NPYLR7 ag max-min
COc1ccc(CCN2CC(=O)N(c3ccccc3)C3CS(=O)(=O)CC32)cc1OC (centres undefined)	3	4
O=C(NC1CC1)N1CCN(C(c2ccccc2)c2ccccc2)CC1	9	4
Cc1ccc(-n2c(SCCCCC(=O)N3CCN(C(=O)c4cccc5ccccc45)C(C)C3)nnc2-c2ccccc2)cc1 (centres undefined)	-10	-6
CC(C)(C)NC(=O)c1cc(-c2ccccc2F)nc2cc(C(C)(C)C)nn12	3	7
C=CCn1c(SCC(=O)NCC2CCCO2)nc2sc3c(c2c1=O)CCC(C)C3 (centres undefined)	20	6
CCC(CO)Nc1nc(C2CC2)nc2scc(-c3ccccc3)c12 (centres undefined)	1	1
Cc1ccccc1-n1c(SCc2ccc(C(=O)NCc3ccc(F)cc3)cc2)nnc1-c1ccncc1	6	14
CCOC(=O)C1(CCCc2ccccc2)CCN(C(=O)Cc2cnc3ncnn3c2)CC1	2	1
Clc1cc2c(c3ncccc13)OCN(CCCN1CCOCC1)C2	1	-1
CCOC(=O)C(=O)N1C[C@@H](C(=O)OCC)[C@@H]2Oc3cc(OC)ccc3[C@@H]21	2	3
O=C(c1ccco1)N1CCN(c2ncnc3scc(-c4cccs4)c23)CC1	6	11
Cc1cccc(S(=O)(=O)N2CCN(c3cc(-n4ccnc4)nc(C)n3)CC2)c1	-12	-16
CC(=O)c1c(-c2ccccc2)c2cc(C)ccc2n(C)c1=O	-14	-13
Cc1ccc(N2CCN(C(=O)c3cccs3)C(C)C2=O)c(C)c1 (centres undefined)	1	4
COCCN(CC(=O)N1CCc2sccc2C1c1ccccc1)S(=O)(=O)c1c(C)cc(C)cc1C (centres undefined)	21	20
CC1(C)O[C@@H]2C[C@@](OCc3ccc(F)cc3)(C(=O)NC3CC3)CC(OCc3cccc(C(F)(F)F)c3)[C@@H]2O1 (some centres undefined)	39	33
CCOC(=O)CCCC(SC#N)C(=O)c1[nH]c(=O)[nH]c1C (centres undefined)	13	5
COc1ccc(CN2CCCC(Nc3ccc(F)cc3)C2)c(OC)c1OC (centres undefined)	13	5
O=C(NC1(c2cccc(Br)c2)CCOCC1)C1CCC1	-19	-19
Clc1cccc(Nc2nc3ccccc3n3nnnc23)c1	11	2
O=C(NC1CCCN(CCc2ccccc2)C1)c1cc2ccccc2o1 (centres undefined)	15	8
O=C(NCCNc1nc(-c2ccc(F)cc2)nc2cc(Cl)ccc12)C1CC1	9	17
Cc1ccc(C#N)cc1S(=O)(=O)NCCCn1ccnc1C	16	10
Oc1c(C(Nc2ccccn2)c2ccccc2)ccc2cccnc12 (centres undefined)	3&-4	2&-7
CCOC(=O)N1CCN(C2CCCN(C(=O)CSC)C2)CC1 (centres undefined)	3	1
CCCc1cc(NCc2cccnc2)n2ncc(-c3ccccc3)c2n1	4	3
COc1ccc(C(C)=O)cc1Cn1cc(C(=O)NCc2ccco2)sc1=O	3	-3
CCCN(Cc1nnc(-c2cccs2)o1)C(=O)Cn1nnc(-c2cccs2)n1	0	26
COc1ccc(C)cc1NC(=O)C(C)Oc1cccc2c1CCC2=O (centres undefined)	0	1
Cc1cc2c(C)nc(N3CCC(NC(CCn4ccnc4C)c4ccccc4)CC3)nc2cc1F (centres undefined)	10	-2
c1ccc2c(c1)CC(N1CCC(CN(Cc3cccc4nonc34)CC3CCCO3)CC1)C2 (centres undefined)	1	-3
COCCNC(=O)c1ccc(OC2CCN(Cc3cc4ccccc4o3)CC2)c(Cl)c1	3	-1
COc1cc(/C=C/C(=O)NCC2CC2)cc(OC)c1	1	20
COc1ccc(F)c(-c2cc(C(=O)O)cc(S(=O)(=O)N3CCSCC3)c2)c1	-6	-7
O=C1Nc2ccccc2SC1CC(=O)N1CCCC1c1ccccc1 (centres undefined)	-1	-2
CN(C)c1ccc(C=NNC(=O)c2cccnc2)cc1	-4	-11
CNS(=O)(=O)c1cccs1	3	10
CCCN(C)c1nc(-c2ccccc2)nc2c1CN(S(=O)(=O)CC13CCC(CC1=O)C3(C)C)CC2 (centres undefined)	-5	6
C[C@H](NC(=O)C12CC3CC(CC(C3)C1)C2)C(=O)N1CCC(C(=O)N2CCOCC2)CC1	28	19
Cc1cc(C)cc(OCCN(C)Cc2cc(=O)n(C)c(=O)n2C)c1	4	4
Cc1nn2c(nc(NCC(C)(C)N3CCOCC3)c3ccccc32)c1Cl	6	1
N#Cc1ccc(-n2ncc3c2CCN(CC(=O)Nc2cc(Cl)cc(Cl)c2)C3)cc1	0	22
O=S(=O)(c1c(F)cccc1F)N1CCCC2CCCCC21 (centres undefined)	1	6
Cn1c(=O)n(CC(=O)C(C)(C)C)c(=O)c2c1nc1oc(-c3ccccc3)cn12	1	9
Cc1ccc(CSC2=NS(=O)(=O)c3ccccc3N2)cc1	9	2
CCNC(=O)N1Cc2[nH]cnc2C[C@H]1C(=O)NCc1ccc(OC)cc1	-6	-13
Fc1cccc(Oc2cc(Cl)ncn2)c1	14	17
Cc1nc(CN2CC(OCc3ccncc3)CN(Cc3cc4ccccc4o3)CC2=O)cs1 (centres undefined)	12	4
Cc1ccc2occ(C(=O)c3ccccc3Cl)c(=O)c2c1	4	1
COc1ccc(N2CCn3c2nc2c3c(=O)n(CCCO)c(=O)n2C)c(OC)c1	-6	-7
COc1ccc(-c2nc(CSc3cccs3)cs2)cc1OC	2	-4
Cc1noc(-c2ccc(C(=O)NCCC(C)C)cc2)n1	0&8	0&4
Cc1ccc([N+](=O)[O-])cc1-c1ccc(/C=C2/NC(=S)NC2=O)o1	-5	-6
CC(C)(C)n1ncc(C(=O)NCc2ccccn2)c1-c1ccccc1	9	20
CC(NC(=O)c1conc1-c1ccccc1)c1nnc2n1CCNCC2 (centres undefined)	3	1
COc1cc(C(=O)NCC2Cc3cc(C(C)(C)C)ccc3O2)cc(OC)c1OC (centres undefined)	18	29
COCCNS(=O)(=O)c1c(C)cc(C)c(N(C)S(=O)(=O)c2ccccc2)c1C	3	5

Single records, as listed above:
CCNC(=O)N1Cc2[nH]cnc2C[C@H]1C(=O)NCc1ccc(OC)cc1 is listed with NPYLR7 ag = -6; NPYLR7 ag max-min = -13
O=S(=O)(c1c(F)cccc1F)N1CCCC2CCCCC21 (centres undefined) is listed with NPYLR7 ag = 1; NPYLR7 ag max-min = 6
CC(C)(C)n1ncc(C(=O)NCc2ccccn2)c1-c1ccccc1 is listed with NPYLR7 ag = 9; NPYLR7 ag max-min = 20

Screens from PubChem.
